Sa RN4220 lethal: growth inhibition of S. aureus RN4220, primary screen, OD600; 16 h; 0.33% of 330,000 active; AID 1259311, 2017; inhibition, % (test concentration not listed);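 active means z-score of -3 or lower and OD600 up to 0.18 on both plates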;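 further: plate controls were untreated cells for no effect and reference antibiotic for full effect; stock transfer was 100 nL into about 80 µL; one replicate is shown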
PrP UTR inh: inhibition of PrP 5' UTR reporter expression. cell-based PrP 5' UTR mRNA reporter, plate reader. 0.35% of 340,000 active. inhibition, % (no concentration beside the values);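 active means every replicate at 50% or more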;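 further: 0 = median of the neutral control wells; tested in H4 reporter cells; numbers are from one replicate; inactives centre near -14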
Sa ugtP lethal: growth inhibition of ugtP-null S. aureus, primary screen, RN4220 ugtP deletion, OD600; 16 h; some inactives read as strong as hits; growth inhibition, % (concentration not given with the values); 0.54% of 330,000 active; AID 1259309, 2017;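 active means z-score under -3 and OD600 up to 0.15 on both plates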;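 further: plate controls were untreated wells for no effect and antibiotic for full effect; wells of about 80 µL received 100 nL stock; the first replicate is given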
BJeLR lethal: MLPCN primary cell-based screen for lethality selective to Ras in HRASV12 cells. BJeLR (HRASV12) viability, CellTiter-Glo ATP luminescence, 48 h; reference of the scale not given here. inhibition, % (no concentration beside the values). 0.17% of 300,000 active. AID 1554, 2009;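 active means replicate mean above 50%; inconclusive means above 50% but judged a plate artefact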;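 further: 50 nL library stock added to about 25 µL; numbers are from one replicate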
Autofluor counter: compound fluorescence in toxin protease inhibitor counterscreen; AID 624483; fluorescence intensity (no concentration beside the values); compound autofluorescence counterscreen, microsphere flow cytometry; hits give high values; 3.1% of 360,000 active;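 active means at least 3 SD above the mean of all compounds, about 16000 in these data; inconclusive means too few beads counted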;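 further: 100 nL of 1 mM stock went into each well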
Mtb hypoxia inh: PubChem AID 1159583 | M. tuberculosis hypoxia-regulated fluorescent reporter, fluorescence | fluorescence inhibition, % (test concentration not listed) | 0.1% of 300,000 active;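 active means 35 to 45% if threefold the growth effect, above 45% if 1.5-fold the growth effect; inactive means the rest, general growth blockers included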;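 further: wells of about 50 µL received 100 nL stock; 0% = vehicle wells and 100% = reference inhibitor wells; whole bacteria with a GFP reporter of the hypoxia response; strong numbers were not always called active; many hits fall short of the cut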
Mtb hypoxia inh growth: recorded beside Mtb hypoxia inh, whose call it bears; growth inhibition, %; measured here: M. tuberculosis growth (absorbance);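 0% = vehicle and 100% = reference antibiotic; read after six days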
Starred values were filed as active, the others as inactive; ? = inconclusive; . = no result given.

Molecule	Sa RN4220 lethal	PrP UTR inh	Sa ugtP lethal	BJeLR lethal	Autofluor counter	Mtb hypoxia inh	Mtb hypoxia inh growth
COc1ccc(NC(=O)C2CCN(S(=O)(=O)c3cccnc3)CC2)cc1Cl	-1.7	-8	11	6	6034	1	0
COc1coc(C(O)C[N+](=O)[O-])cc1=O (stereo not given)	2.3	-21	9	3	2575	1	0
O=C(OC1CCc2ccccc2C1=O)c1ccccc1O (stereo not given)	6.5	-36	7	.	4813	.	.
COc1ccc(C(=O)OCC(=O)Nc2c(C)cccc2C)cc1	1.8	-8	8	1	3651	6	12
CCOc1ccccc1OCC(=O)Nc1ccccc1C(=O)NC1CC1	5.8	-9	3	-4	?	10	-3
CN(NC(=O)Nc1ccccc1)c1cnn(C)c(=O)c1Cl	-1.8	-4	-6	-15	.	-8	3
COCCCN1C(=O)C(=O)/C(=C(/O)c2ccc(S(=O)(=O)N3CCOCC3)cc2)C1c1ccc(C(C)C)cc1 (stereo not given)	4.1	-1	-6	-8	5132	-3	-10
CCC1(C)CC(=O)N(c2ccc(F)c(Cl)c2)C(=O)C1	2.7	-39	8	1	3794	-1	5
O=c1[nH]nc(Cc2ccc(-c3ccccc3Cl)o2)c2ccccc12	5.6	-12	-11	3	9260	4	11
CCOc1ccc(Nc2nc(N)c([N+](=O)[O-])c(N3CCOCC3)n2)cc1	11	-14	6	-11	4138	15	1
O=C(CN(Cc1ccccc1)S(=O)(=O)c1ccccc1)NN=Cc1ccc([N+](=O)[O-])cc1	0.8	.	-27	.	.	9	-2
CC1CC(C)CN(C(=O)COC(=O)c2c[nH]c3ccccc23)C1 (stereo not given)	5.1	-9	2	.	4983	12	14
O=C(C(=O)N1CCC2(CC1)OCCO2)c1c[nH]c2ccccc12	3.8	-3	3	1	2206	15	7
O=C(CN1Cc2ccccc2C1=O)Nc1ccc2c(c1)OCCO2	2.0	-9	2	-9	4578	6	3
CC(=O)N[C@@H]1[C@@H](O)[C@@H]2OC(c3ccccc3)OC[C@H]2O[C@@H]1N=[N+]=[N-] (stereo not given in full)	0.4	6	3	-3	.	11	6
C[C@]12CCC(=O)C=C1CC[C@@H]1C2[C@H](O)C[C@]2(C)C(=O)CCC12 (stereo not given in full)	5.1	-17	7	11	3568	7	3
NS(=O)(=O)c1ccc(NC(=O)C(Sc2ccccc2)c2ccccc2)cc1 (stereo not given)	3.4	-18	6	6	2271	13	4
Cc1cc(C)n2nc(-c3sccc3-n3cccc3)cc2n1	4.8	0	8	6	3098	.	.
COc1ccc(-n2c(-c3ccc(Cl)cc3)c[n+]3c2CCc2ccccc2-3)cc1	-0.4	-27	-15	1	4685	19	24
Clc1ccc(Cn2ccc(C3CC3)n2)cc1	4.5	-12	2	29	4200	0	-5
Cc1cc(C)c2[nH]c(=O)c(C(c3nnnn3Cc3ccc4c(c3)OCO4)N3CCCC3)cc2c1 (stereo not given)	-3.4	-20	-3	-19	2610	.	.
COc1ccc(OC)c(NC(=O)C2CC(=O)N(c3ccc(Br)cc3)C2)c1 (stereo not given)	4.9	-6	-1	-11	2397	0	8
Cc1ccc(C(=O)NCC(=O)O)o1	5.4	-23	7	-13	4646	15	11
CCn1c(COc2ccccc2C(N)=O)nc2ccccc21	-9.8	-24	-3	15	3250	13	16
O=C(NC1CC2CCC(C1)N2Cc1ccccc1)c1ccccc1Cl (stereo not given)	2.4	-12	7	5	3334	3	-5
CC(=NNC(=O)CNC(=O)COc1cccc(C)c1)c1ccc(Cl)cc1	4.5	.	-2	.	.	5	12
O=S(=O)(Nc1ccccc1C(F)(F)F)c1ccc(-c2ccccn2)s1	46	-22	-4	0	3883	4	-2
CCOc1ccc(NC(=O)Nc2cc(-c3ccccc3)sc2C(=O)OC)cc1	-5.8	-17	66	-12	2156	3	8
CCc1ccc(N2C(=O)c3sc4nnc(C)c(=O)n4c3C2=O)cc1	0.9	-23	4	-4	20580*	-1	11
CC[N+]1(CC(O)COC2CC(C)CC(C)(C)C2)CCOCC1 (stereo not given)	3.2	-22	0	-2	4727	4	0
CCN(c1ccccc1)S(=O)(=O)c1ccc(Cl)c(NC(=O)CSc2nncn2C)c1	6.8	-19	-4	4	2526	6	3
Cc1onc(-c2ccccc2Cl)c1C(=O)NCc1nnnn1-c1ccc(F)cc1	3.0	-9	3	-1	.	1	1
CCN(CC(=O)Nc1c(F)cccc1F)C(=O)C1(c2ccccc2)CC1	8.7	-7	1	-7	5517	1	0
O=c1[nH]c2ccccc2nc1Cc1ccc([N+](=O)[O-])cc1	2.9	10	4	1	3645	3	4
Cc1ccc(NC(=O)N(Cc2cc3cc(C)cc(C)c3[nH]c2=O)CC2COCCO2)cc1 (stereo not given)	0.7	-2	3	0	4349	.	.
O=C(NCC(c1ccco1)N1CCN(c2ccc(F)cc2)CC1)C(=O)NC1CCCCC1 (stereo not given)	3.4	-5	7	8	5644	4	4
O=C(Nc1ccccc1N1CCCC1)c1ccc2ccccc2c1	0.7	-20	13	20	.	15	5
CN(C)S(=O)(=O)c1ccc(C(=O)NCC(c2cccs2)N2CCOCC2)cc1 (stereo not given)	7.2	-11	10	0	4442	-2	0
O=C(OCc1ccc(F)cc1)c1ccc2c(c1)-c1ccccc1C2=O	-9.7	-15	-3	-12	2485	4	0
CC12CCC(C(=O)N(c3cccc(Cl)c3)C1=O)C2(C)C (stereo not given)	0.2	-114	-5	2	2985	19	6
COc1cccc(NC(=O)CN2C(=O)NC(C)(C3CC3)C2=O)c1 (stereo not given)	6.9	0	11	.	6341	1	4
CC(C)(C)OC(=O)Cn1c(=O)cnc2ccccc21	5.3	-15	9	18	2867	13	5
CCCn1c(N)c(C(=O)NS(=O)(=O)c2ccc(C)cc2)c(=O)n(C)c1=O	1.0	-45	1	10	4461	-11	1
COc1cccc(CN2CCN(Cc3cc(OC)c(OC)c(OC)c3)CC2)c1OC	2.4	-7	2	-3	4179	14	5
COc1ccccc1N(Cc1ccccc1)S(=O)(=O)c1cc(C(=O)O)ccc1Cl	5.5	-11	22	-6	3800	10	2
CCOc1ccccc1NC(=O)c1cccnc1	-2.4	-8	1	0	3021	10	12
CC1CCCN(CCCCOc2cccc(Br)c2)C1 (stereo not given)	-1.2	-2	10	-13	1986	9	2
O=C(NC1CCCCC1)NC1CC2CCC(C1)N2C(=O)NC1CCCCC1 (stereo not given)	0.5	.	3	-4	.	9	9

As a short view, 6 of the compounds above:
Molecule	Sa RN4220 lethal	PrP UTR inh	Sa ugtP lethal	BJeLR lethal	Autofluor counter	Mtb hypoxia inh	Mtb hypoxia inh growth
CC12CCC(C(=O)N(c3cccc(Cl)c3)C1=O)C2(C)C (stereo not given)	0.2	-114	-5	2	2985	19	6
COc1cccc(NC(=O)CN2C(=O)NC(C)(C3CC3)C2=O)c1 (stereo not given)	6.9	0	11	.	6341	1	4
CC(C)(C)OC(=O)Cn1c(=O)cnc2ccccc21	5.3	-15	9	18	2867	13	5
CCCn1c(N)c(C(=O)NS(=O)(=O)c2ccc(C)cc2)c(=O)n(C)c1=O	1.0	-45	1	10	4461	-11	1
COc1cccc(CN2CCN(Cc3cc(OC)c(OC)c(OC)c3)CC2)c1OC	2.4	-7	2	-3	4179	14	5
COc1ccccc1N(Cc1ccccc1)S(=O)(=O)c1cc(C(=O)O)ccc1Cl	5.5	-11	22	-6	3800	10	2

Continued.
Molecule	Sa RN4220 lethal	PrP UTR inh	Sa ugtP lethal	BJeLR lethal	Autofluor counter	Mtb hypoxia inh	Mtb hypoxia inh growth
COc1ccc(CCC(=O)N2CCCSC2=Nc2ccc(C(C)=O)cc2)cc1	11	-53	10	-13	7659	-1	8
Cc1cccc(NS(=O)(=O)c2cc(OCC(N)=O)c(C)cc2Cl)c1	1.9	-7	-9	7	3361	.	.
CCC(c1nnnn1Cc1ccc(OC)cc1)N1CCN(C(=O)c2ccco2)CC1 (stereo not given)	2.7	-17	5	4	4706	12	5
CCc1ccc(NC(=O)CSc2nc3ccccc3c(=O)n2CCN2CCOCC2)cc1	.	-25	.	-12	23521*	.	.
CC(=O)Oc1ccc(C)cc1-n1nc2ccccc2n1	6.7	-79	7	-8	3262	13	14
O=C(Nc1cc(=O)[nH]c2nc(-c3ccccc3)nn12)c1ccc(Cl)cc1	7.3	.	-1	13	.	3	8
Nc1ccccc1Nc1ccncc1[N+](=O)[O-]	-4.6	-30	-7	3	3554	-2	-1
CCn1c(COc2ccc3c(c2)CCCC3)nnc1SCC(=O)Nc1ccc(C(=O)OC)cc1	0.6	1	-16	-1	2027	5	3

2 of these compounds, reformatted:
SMILES: Cc1cccc(NS(=O)(=O)c2cc(OCC(N)=O)c(C)cc2Cl)c1
  Sa RN4220 lethal = 1.9; PrP UTR inh = -7; Sa ugtP lethal = -9; BJeLR lethal = 7; Autofluor counter = 3361; Mtb hypoxia inh = .; Mtb hypoxia inh growth = .

SMILES: CCC(c1nnnn1Cc1ccc(OC)cc1)N1CCN(C(=O)c2ccco2)CC1 (stereo not given)
  Sa RN4220 lethal = 2.7; PrP UTR inh = -17; Sa ugtP lethal = 5; BJeLR lethal = 4; Autofluor counter = 4706; Mtb hypoxia inh = 12; Mtb hypoxia inh growth = 5

(more compounds)
Molecule	Sa RN4220 lethal	PrP UTR inh	Sa ugtP lethal	BJeLR lethal	Autofluor counter	Mtb hypoxia inh	Mtb hypoxia inh growth
CCOc1cc(/C=N/n2cnnc2)ccc1OCC(=O)Nc1ccccc1OC	.	-5	.	-1	3300	.	.
CC1CCC(NC(=O)C2CCC(CNc3c(N4CCCCC4)c(=O)c3=O)CC2)CC1 (stereo not given)	3.1	-11	-5	-1	4735	-9	15
C[C@]12c3[nH]c4ccc(Cl)cc4c3CCN1C(=O)[C@@H](CC(=O)NCCC1=CCCCC1)C[C@@H]2C(=O)N1CCOCC1	2.7	-17	-2	.	3468	-5	7
CCN(Cc1ccncc1)C(=O)C1CCN(S(=O)(=O)c2cccs2)CC1	-0.5	-22	0	7	3195	-7	-3
Cc1ccccc1C=NNc1nc2ccccc2[nH]1	-1.8	.	3	.	.	-5	-8
CCc1cc(=O)oc2c3c(cc(OCC(=O)N[C@H](C(=O)O)[C@H](C)CC)c12)OC(C)(C)CC3	6.6	-14	21	-4	2919	2	5
CC1Nc2ncnc(N3CCc4ccccc4C3)c2N(Cc2ccc(Cl)cc2)C1=O (stereo not given)	2.6	-2	2	9	4086	-2	-3
CN1CCN(c2ccc(NC(=O)COc3ccccc3[N+](=O)[O-])cc2)CC1	3.1	-28	-6	2	4135	4	4
COc1ccc(C2=NOC(C(=O)NCCN3CCOCC3)C2)cc1 (stereo not given)	1.1	-27	3	-11	21268*	3	8

Outcome played no part in choosing rows; any-hit rate near 3.9%.
